Marburg entry = inhibitors of Marburg virus binding or entry into cells; Marburg virus pseudotype entry/binding inhibition, cell-based; control for the full effect not named in the record; many of its hits are not listed in these tables; Potency, µM (highest dose often 49.2 µM), without a hit: at the highest dose activity change, negative = inhibition, most hits filed as inhibitors; 18,000 compounds, 6.5% hits; active means well fitted inhibition curve with a large enough effect; inconclusive means small, poorly fitted or top-dose-only effect; inactive means no such curve, though single readings can be large or run the other way; tested in HEK293 cells; note: luciferase read-out
LASV entry inh = blocks Lassa virus binding or cell entry; 18,000 compounds, 4.1% hits; Lassa virus pseudotyped entry inhibition, cell-based qHTS; control for the full effect not named in the record; many of its hits are not listed in these tables; AID 720533; Potency, µM (doses to about 49.2 µM), for the others: top-dose activity change, negative = inhibition, actives largely listed as inhibitors; active = well fitted inhibition curve with a large enough effect; inconclusive = small, poorly fitted or top-dose-only effect; inactive = no such curve, though single readings can be large or run the other way; tested in HEK293 cells; note: luciferase read-out
Active calls of the source: *; ? = inconclusive; nt = no result given; & = joins results of further samples; [ ] = another dose, or the depositor's remark. % is set by controls: 0 for no effect and ±100 for the full control effect; potency is the fitted concentration of half-maximal effect. Rows were taken by chance; overall some 8.2% were active at least once.

mol	Marburg entry	LASV entry inh
COCc1c(C(=O)NC2CCCCC2)cnn1-c1nccc(-c2cc(C)sc2C)n1	80.5%[activator]	46.7%[activator]
CCCCC[C@H](O)/C=C/C=C/C/C=C\CCCC(=O)O	3.0%	-5.6%
COC(=O)N[C@H](C(C(=O)OC)=C(C)NCc1ccccc1)c1ccc(Cl)cc1	-16.7%[8.59 µM]	26.6%[8.59 µM]
CC[C@H](C)[C@H](NC(=O)[C@H](CC(C)C)NC(=O)[C@H](CC(N)=O)NC(=O)[C@@H](NC(=O)[C@@H](N)Cc1ccc(O)cc1)[C@@H](C)CC)C(=O)N[C@@H](Cc1ccc(O)cc1)C(=O)N[C@@H](CCCN=C(N)N)C(=O)N[C@@H](CC(C)C)C(=O)N[C@@H](CCCN=C(N)N)C(=O)N[C@@H](Cc1ccc(O)cc1)C(N)=O	-16.8%	-4.5%
CC(C)C[C@H]1COc2c(Cl)cccc2S(=O)(=O)N1Cc1ccc(F)cc1F	-28.5%	27.5%
NC(=NCCCC(N)C(=O)O)N[N+](=O)[O-] (stereo not given)	1.2%	-19.1%
NCCCP(=O)(O)CC1CCCCC1	-14.5%&18.1%	1.0%&0.2%
Cc1cc(=O)oc2cc(NC(=O)CC(N)C(=O)O)ccc12 (stereo not given)	8.2%	-1.0%
COc1cccc(-c2nc(NCc3cnc(C)cn3)c3ccccc3n2)c1	9.1%	19.6%
CN(c1ccc(NC(=O)NCCN2CCOCC2)cc1)c1ccnc(Nc2ccc(CS(C)(=O)=O)cc2)n1	-13.4%	71.6%
CN1C[C@@H](CO)C=C2c3cccc4[nH]cc(c34)CC21 (stereo not given in full)	17.1%	-9.0%
COC(=O)N[C@H](CC(C)=O)c1ccccc1	3.4%[8.59 µM]	-26.8%[8.59 µM]
CCOC(=O)CN1C(=O)NC(CCc2ccccc2)C(C(=O)OC)=C1C (stereo not given)	-23.0%[8.59 µM]	nt
Cc1cccc(CN2CCN([C@@H]3C[S+](=O)([O-])N[C@@H]3COCc3ccccc3)CC2)c1	-18.3%	-9.7%
COCCCNc1ncnc2sc(C(=O)N3CCOCC3)c(C)c12	11.9%	-18.8%
CCCCCCN1C[C@H](O)[C@@H](n2cc(C3CC3)nn2)C[C@H]1c1ccccc1	?	4.6%
O=S1(=O)N[C@@H](Cc2ccccc2)COc2cc(Br)ccc21	15.3%	nt
CCCCCCCCCCCCCCSCC(=O)O	12.7%	-3.9%
CCN1C(=NCCCCO)N[C@@H](CCc2ccccc2)[C@H](C(=O)OC)[C@H]1C	9.2%[8.59 µM]	-7.6%[8.59 µM]
COc1ccc([C@H]2C[C@@H](n3cc(-c4ccc(F)cc4)nn3)[C@H](O)CN2C(=O)C2CCCCC2)cc1	-17.9%	-18.5%
COc1cc2c(cc1OC)[C@H](C)N(CC1C(=O)O[C@@H]3C[C@@]4(C)CCC[C@H](C)[C@@]45OC5[C@H]13)CC2 (stereo not given in full)	12.6µM*	-31.6%
COC(=O)[C@@H](NS(=O)(=O)c1cc(Br)ccc1Br)C(C)C	7.4%	23.1%
COc1ccc2c(c1)OC(C)CN(CCNC(=O)C1CCOC1)C2 (stereo not given)	-14.5%	-7.5%
COc1ccc(CNCCS(=O)(=O)NN2CCOCC2)cc1	20.9%	15.4%
N[C@@H](C(=O)O)c1ccc(P(=O)(O)O)cc1	11.4%	1.3%
CCCCC/C=C\C/C=C\C/C=C\C/C=C\CCCC(=O)NCc1ccc(O)c(OC)c1	?	7.94µM*
CCCNC(=O)OC[C@H]1O[C@H](CCON=C2[C@H]3CCn4c(=O)n(-c5ccccc5)c(=O)n4[C@@H]3[C@H](O)[C@@H]3O[C@H]23)C=C[C@H]1Oc1ccc(OC)cc1	32.5%[activator][8.59 µM]	-12.1%[8.59 µM]
CC(C)(C)c1ccc(C(=O)N2[C@H](COCc3ccccc3)C=CS2(=O)=O)cc1	13.9%	8.5%
O=C(Nc1ccc(Cl)cc1)OCCN1CCN(Cc2ccccc2)CCC1=O	70.8%[activator]	-9.4%
COc1cccc(/C=C/C(=O)O)c1C(C)C	6.6%	-0.8%
NS(=O)(=O)c1cccc2c1c([N+](=O)[O-])cc1[nH]c(=O)c(=O)[nH]c12	10.2%&1.6%	0.0%&1.9%
CC(O)(COc1ccccc1)c1ccc2c(c1)CN(Cc1cccn1-c1ccccn1)CCO2 (stereo not given)	?	2.2%
CN(C)C(=O)c1cc(CNCc2ccc(C(F)(F)F)cc2)cc(NC(=O)c2ccccn2)c1	1.1%	2.5%
N=C1N=C(N)c2cc3ccccc3cc21	20µM*	35.5µM*
C#CCN1CC(COCCCC)Oc2cccc(F)c2S1(=O)=O (stereo not given)	10.5%	-3.2%
CN(C)C=Nc1c(I)cc(I)c(CCC(=O)O)c1I	17.7%	-11.3%
CCCCCC(=O)N1C[C@@H](n2cc(C3CC3)nn2)[C@H](O)C[C@H]1c1ccccc1	-7.1%	16.7%
COc1ccc2[nH]cc(CCNc3ncnc4ccc(-c5ccc(C(=O)N(C)C)cc5)cc34)c2c1	?	?
C=CCN1CCS(=O)(=O)N(Cc2ccccc2)[C@@H](C(C)C)C1=O	20.2%	5.6%
Cc1c(-c2ccccc2)oc2cc(O)ccc2c1=O	60.2%[activator]	-2.0%
CCCCC[C@H](O)/C=C/[C@@H]1[C@@H](CC(=O)CCCCC(=O)O)[C@@H](O)C[C@H]1O	1.2%&-0.6%	-12.1%&-1.3%
N[C@@H](CS(=O)O)C(=O)O	1.8%&17.3%&1.2%	1.6%&0.4%&-15.1%
COc1cccc(CN2CCOc3ccc(CN4C[C@@H](C)O[C@@H](C)C4)cc3C2)c1OC	3.0%	-8.8%
C=C(C)C1CC[C@]2(CO)CC[C@@]3(C)[C@H](CCC4[C@@]5(C)CCC(O)C(C)(C)C5CC[C@@]43C)C12 (stereo not given in full)	2.5%	2.3%
Brc1ccc(C2=N[C@@H](Cc3ccccc3)CO2)cc1	32.7%[activator]	48.7%[activator]
CCN(CC)CCNC(=O)c1ccc(NS(C)(=O)=O)cc1	1.1%	0.4%
COC(=O)C1=C(C)NC(C)=C(C(=O)OC(C)(C)CN(C)CCC(c2ccccc2)c2ccccc2)C1c1cccc([N+](=O)[O-])c1 (stereo not given)	?	12.6µM*
O=C(Nc1cc(C(=O)Nc2ccc(S(=O)(=O)O)cc2S(=O)(=O)O)cc(C(=O)Nc2ccc(S(=O)(=O)O)cc2S(=O)(=O)O)c1)Nc1cc(C(=O)Nc2ccc(S(=O)(=O)O)cc2S(=O)(=O)O)cc(C(=O)Nc2ccc(S(=O)(=O)O)cc2S(=O)(=O)O)c1	-22.5%	-5.1%
CN(C)[C@H]1CCN([C@@H]2C[S+](=O)([O-])N[C@@H]2COCc2ccccc2)C1	23.2%	8.7%
COC(=O)[C@@H]1CCCN1Cc1ccc2c(c1)CN(Cc1nccs1)CCO2	-16.8%	-2.7%

More structures:
mol	Marburg entry	LASV entry inh
CC(C)[C@H](NC(=O)[C@H](CCC(=O)O)NC(=O)[C@H](Cc1ccccc1)NC(=O)[C@H](C)NC(=O)[C@@H](N)Cc1ccc(O)cc1)C(=O)N[C@H](C(=O)NCC(N)=O)C(C)C	0.8%	-13.3%
CC(C)CON=C1C[C@@H](O)[C@@H](O)[C@@H]2[C@H]3C(=O)N(c4cccc(Oc5ccccc5)c4)C(=O)[C@@H]3CC[C@H]12	-1.1%[8.59 µM]	-6.6%[8.59 µM]
C=C(C(C)=O)C(O)c1ccc([N+](=O)[O-])cc1 (stereo not given)	?	-8.5%
CC(C)CCNC(=O)C(CC(C)C)NC(=O)C1OC1C(=O)O (stereo not given)	-26.3%	-4.3%
CNc1ccccc1C(=O)O	-9.5%	-6.6%
C/C=C(\C)C(=O)OC1CC(OC(C)=O)[C@@]2(C(=O)OC)COC3C2[C@@]12CO[C@](O)(C(=O)OC)C2[C@](C)(C12OC1(C)C1CC2OC2OC=C[C@]21O)C3O (stereo not given in full)	0.7%	0.8%
CC(C)CC1C(=O)N(Cc2cn(CCC3OCCO3)nn2)CCS(=O)(=O)N1Cc1ccc(-c2ccc(Cl)c(Cl)c2)cc1 (stereo not given)	?	nt
Cc1ccc(C(C)C)cc1-n1nnc(-c2cccc(Cc3ccc4ccccc4c3)c2)c1C(C)O (stereo not given)	?	-33.3%
COC[C@@H]1N[S+](=O)([O-])c2ccc(Br)cc2O[C@@H]1c1ccccc1	-6.7%	-7.8%
C[C@@H]1CCN=C(N)S1	-19.2%	-8.3%
CCn1c(-c2ccccc2F)nc2cc(NC(C)=O)cc(C(=O)N(C)Cc3c(C)nc4ccccn34)c21	-4.8%	-5.5%
COc1cccc(-c2cc(=O)c3cc(NC(=O)c4cccnc4)ccc3[nH]2)c1	8.1%	0.3%
CC(C)[C@]1(NC(=O)[C@@H]2C=C3c4cccc5[nH]cc(c45)C[C@H]3N(C)C2)O[C@@]2(O)C3CCCN3C(=O)[C@H](Cc3ccccc3)N2C1=O (stereo not given in full)	-3.2%	-20.4%
CC1(C)N(O)C(c2ccc(C(=O)O)cc2)=[N+]([O-])C1(C)C	9.1%	-2.2%
C=CCN1c2ccccc2[C@]23C[C@@H](C(=O)OC)N(C(=O)CC(C)C)C2=NC(C(=O)OC)=C(C(=O)OC)[C@H]13	30.5%[activator][8.59 µM]	1.7%[8.59 µM]
CCN1C(=NCc2ccco2)N[C@@H](CCc2ccccc2)[C@H](C(=O)OC)[C@H]1C	33.1%[8.59 µM]	42.8%[activator][8.59 µM]
CCS(=O)(=O)NCc1c(C)ncc2c1CCN(C(=O)c1csc(-c3cccs3)n1)C2	3.9%	-22.8%
COC(=O)C1(C)C=C(Nc2ccc(OC)cc2)C(=O)N1c1ccc(OC)cc1 (stereo not given)	?	3.9%
C/C1=C2N=C(/C=C3N=C(/C(C)=C4\[N-]C(C(CC(N)=O)C4(C)CCC(=O)NCC(C)OP(=O)([O-])OC4C(CO)OC(n5cnc6cc(C)c(C)cc65)C4O)C4(C)N=C1C(CCC(N)=O)C4(C)CC(N)=O)C(CCC(N)=O)C\3(C)C)C(CCC(N)=O)C/2(C)CC(N)=O.[CH3-].[Co+3] (stereo not given)	3.16µM*	2.51µM*
O=[N+]([O-])c1cc(O)c(O)c([N+](=O)[O-])c1	0.9%&8.5%	-2.9%&21.0%

Exported with values under each structure: four of the compounds above.
The line under a structure holds: Marburg entry	LASV entry inh
> COC(=O)[C@@H]1CCCN1Cc1ccc2c(c1)CN(Cc1nccs1)CCO2
→ -16.8%	-2.7%
> CC(C)[C@H](NC(=O)[C@H](CCC(=O)O)NC(=O)[C@H](Cc1ccccc1)NC(=O)[C@H](C)NC(=O)[C@@H](N)Cc1ccc(O)cc1)C(=O)N[C@H](C(=O)NCC(N)=O)C(C)C
→ 0.8%	-13.3%
> CC(C)CON=C1C[C@@H](O)[C@@H](O)[C@@H]2[C@H]3C(=O)N(c4cccc(Oc5ccccc5)c4)C(=O)[C@@H]3CC[C@H]12
→ -1.1%[8.59 µM]	-6.6%[8.59 µM]
> C=C(C(C)=O)C(O)c1ccc([N+](=O)[O-])cc1 (stereo not given)
→ ?	-8.5%

Later entries:
mol	Marburg entry	LASV entry inh
C[C@H](NC(=O)CNC(=O)[C@@H](NC(=O)[C@H](Cc1ccccc1)NC(=O)CNC(=O)CNC(=O)[C@@H](N)Cc1ccccc1)[C@@H](C)O)C(=O)N[C@@H](CCCN=C(N)N)C(=O)N[C@@H](CCCCN)C(=O)N[C@@H](CO)C(=O)N[C@@H](C)C(=O)N[C@@H](CCCN=C(N)N)C(=O)N[C@H](CN)CCCCN	-5.4%	1.7%
COc1ccc2c(c1)-c1nc(-n3ncc(C(=O)NCc4cccc(C)n4)c3C3CC3)ncc1CC2	-27.7%	-6.5%
[C-]#[N+]c1cc(-c2ccncc2)c(C)[nH]c1=O	14.2%	?
CCOC(=O)[C@@](C)(N)Cc1ccc(O)c(O)c1	3.2%[17.8 µM]	-14.4%[17.8 µM]
Cc1ccc([C@H]2C[C@@H](O)[C@H](n3cc(C4CC4)nn3)CN2CC2CCCCC2)cc1	?	-43.6%
CC[C@H](C)[C@@H](NC(=O)O[C@@H]1C(=O)c2cc(Br)ccc2O[C@H]1c1ccc2c(c1)OCO2)C(=O)OC	-8.8%	4.0%
N[C@H](CP(=O)(O)O)C(=O)O	3.2%	-7.6%
Cn1ccc2c(N3CCC3)cc3c(c21)C1CCC3O1 (stereo not given)	?	15.6%
C=C(C)C1CCC(C)=CC1c1c(OC)cc(C)cc1OC (stereo not given)	-3.6%	1.1%
COc1cc(-c2cc(C)c3cccc(OC)c3n2)cc2c1OCCN(C(=O)CCn1nc(C)cc1C)C2	5.3%	-33.6%
Cc1ccc(F)cc1S(=O)(=O)NCc1nc(N2CCCC2)c2cccc(C)c2n1	12.6µM*	-9.8%
CC(=O)OCC(=O)Nc1cc(C#N)cc(NC(=O)COC(C)=O)c1Cl	12.0%	-7.6%
Cc1cccc2nc(CNC(=O)CN3Cc4ccccc4OC(c4ccccc4F)C3)cn12 (stereo not given)	?	1.2%
COc1ccc(CCN(C)CCCOc2ccc(S(=O)(=O)c3[nH]c4ccccc4c3C(C)C)cc2)cc1OC	3.98µM*	14.1µM*
Cn1nccc1C(=O)NCC1CCC2(CCN(Cc3ccc(-c4ccc(Cl)cc4)o3)CC2)O1 (stereo not given)	-28.5%	-14.5%
O=CCCCC=O	7.6%	-7.2%
